# H5N1 antiviral = antiviral screen in MDCK cells, H5N1 avian flu; cytopathic effect, luminescence, 72 h; active compounds read high; no value below 0 was filed and about half of the inactive calls have no number; reference of the scale not given here; inhibition, % at 50 µM; 96,000 tested, 0.07% active; AID 740; in the data active = inhibition above about 25%
# * marks the source's active call; other numbers are inactive results; i = inactive. Only part of the results is shown (hit frequency here may not be typical).
canonical_smiles,H5N1 antiviral
Cc1cccc(OCC(=O)NNC(=O)Nc2cccc(Cl)c2)c1C,i
O=C(NC1CCCc2ccccc21)C1CCN(S(=O)(=O)c2cccc3nonc23)CC1 (stereo unspecified),i
CCOc1ccc(N(CC)S(=O)(=O)c2ccc3c(c2)oc(=O)n3C)cc1,0.5
CCC(NC(=O)c1cccc(Cn2nc(C)c([N+](=O)[O-])c2C)c1)c1ccc(C(C)C)cc1 (stereo unspecified),0.2
Cc1ccc(S(=O)(=O)N2CCOCC2)c2nsnc12,1.7
CCCOc1ccc(C(CC(=O)O)NC(=O)c2cccs2)cc1 (stereo unspecified),i
CSc1ccc2[nH]c(=O)cc(C)c2c1,0.3
COc1cc(CNC2CCCCCC2)cc(OC)c1O,i
Cc1nc2oc3c(NCc4ccccn4)ncnc3c2c2c1COC(C)(C)C2,1.6
COCC(C)n1c(SCc2nc(N)nc(Nc3ccccc3C)n2)nc2ccccc2c1=O (stereo unspecified),i
COC(=O)c1cc(Br)c(=O)n(CCN2CCCCC2)c1,i
C=CCOc1c(Cl)cc(CNc2ccc(N(C)C)cc2)cc1OC,i
CCN(CC)C(=O)CN(c1ccc(F)c(Cl)c1)S(C)(=O)=O,i
Cc1cnc(C(=O)Nc2ccccc2F)cn1,0.1
CCOC(=O)N1CCN(CC(O)COCc2ccccc2)CC1 (stereo unspecified),0.4
COc1ccc(-c2cnn3c(N)c(S(=O)(=O)C(C)(C)C)cnc23)cc1,0.3
COC(=O)C(NC(=O)C(NC(=O)c1ccccc1)C(C)C)C(C)C (stereo unspecified),i
COC(=O)C1=C(C(=O)c2ccccc2)C(c2ccc(OC)c(OC)c2)Nc2nnnn21 (stereo unspecified),1.3
c1ccc2nc3[nH]cnc3nc2c1,1.0
Cc1nn(-c2ccccc2)c(Cl)c1C1C(C#N)=C(N)OC2=C1C(=O)CCC2 (stereo unspecified),i
CCOC(=O)c1c(NC(=O)CCC(=O)N2CCOCC2)sc2c1CC(C)(C)OC2,i
CS(=O)(=O)N(CC(=O)N1CCN(c2ccccc2F)CC1)C1CCCCC1,0.7
FC(F)(F)c1cccc(Oc2nc(-c3ccccc3)nnc2C(F)(F)F)c1,i
C/C(CC1(O)/C(=N/O)CCc2nonc21)=N\O (stereo unspecified),i
C/C(CC(=O)Nc1ccccc1[N+](=O)[O-])=N\NC(=O)COc1ccccc1C,i
CC1CC2=C(NC(=S)NC2c2ccc(F)cc2)/C(=C/c2ccc(F)cc2)C1 (stereo unspecified),i
CCOC(=O)Nc1ccc(S(=O)(=O)N2CCOCC2)cc1,i
COc1ccc(OC)c(/C=C(\NC(=O)c2ccccc2)C(=O)N/N=C/c2ccc(C)s2)c1,0.5
Cc1ccc(C(C#N)c2ccc(C(=O)c3ccc(F)cc3)cc2)cc1 (stereo unspecified),i
NS(=O)(=O)c1ccc(S(=O)(=O)N(Cc2ccccc2F)CC2CCCO2)cc1 (stereo unspecified),0.2
CCOC(=O)CC1C(=O)NCCN1C(=O)c1ccc(F)cc1F (stereo unspecified),i
Cc1cccc(C(=O)Nc2sc(C)c(-c3ccccc3)c2C#N)c1,i
CCN(CC)S(=O)(=O)c1ccc2oc(C(=O)Nc3ccc(OC)cc3OC)c(C)c2c1,0.9
COC(=O)C1=C(C)NC2=C(C(=O)CCC2)C1c1cccc(C)n1 (stereo unspecified),0.2
O=C(NC1CCCCC1)C1c2ccccc2C(=O)N1Cc1ccco1 (stereo unspecified),1.2
CCOC(=O)c1c(NC(=S)NC(=O)c2ccco2)sc2c1CCCC2,0.6
C[C@H](C(=O)C=[N+]=[N-])N1C(=O)c2ccccc2C1=O,i
Cc1ccc(N(CC(=O)Nc2ccc(C)cn2)S(=O)(=O)c2c(C)nn(C)c2C)cc1,i
Cn1c(N)c(C(=O)COC(=O)C23CC4CC(CC(C4)C2)C3)c(=O)n(C)c1=O,0.3
COC(=O)c1ccc(NC(=O)CSc2nc3ccccc3c(=O)[nH]2)cc1,i
NC(=O)C1CCN(C2CC(=O)N(Cc3ccc(N4CCCC4=O)cc3)C2=O)CC1 (stereo unspecified),i
Cc1cccc(NC(=O)C2=C(O)c3ccccc3N(C)S2(=O)=O)c1,i
CCOC(=O)N1CCC(N2Cc3cccc(C(=O)Nc4cc(F)ccc4F)c3C2=O)CC1,3.0
CCCN1C(=O)/C(=C/c2cc(C)n(C)c2C)SC1=Nc1ccc(OCC)cc1,0.8
CC(C)Nc1nc(NC(C)C)nc(N(C)N)n1,i
Cc1ccc2c(c1)N(C(=O)CCC(=O)N1CCc3ccccc3C1)CCO2,0.3
C=CCn1c(SCC(=O)Nc2ccc3c(c2)CCC3)nnc1-c1cccs1,i
O=C(COC(=O)CCC(=O)c1cccs1)NCc1ccco1,i
COc1ccc(CCCc2nnc(SCC(=O)Nc3nccs3)n2C)cc1C,1.7
O=c1[nH]c2ccc(NC(=S)Nc3ccccc3Cl)cc2[nH]1,i
CCN(CC)c1cc(Oc2ccccc2)ncn1,0.1
Clc1ccccc1CN(Cc1ccccc1)C(c1cccs1)c1nnnn1C1CCCC1 (stereo unspecified),i
O=C(NCc1cccs1)C1CCN(S(=O)(=O)c2ccc(Br)s2)CC1,i
CCC(=O)Nc1ccc(F)c(Cl)c1,i
Cc1nc2c([nH]1)C1(CCN(Cc3ccccc3)CC1)C(C#N)=C(N)O2,0.3
O=C(NCc1ccco1)c1n[nH]c(=O)c2ccccc12,6.4
O=C(NCCc1ccccc1)c1nc2c(nnn2Cc2ccccc2Cl)c(=O)[nH]1,i
Cc1nc2cc(-c3ccccc3)nn2c(C)c1CCC(=O)NCc1ccco1,3.3
COC(=O)c1ccccc1NC(=O)C1CCN(C(=O)c2ccc(OC)cc2)CC1,i
O=S(=O)(c1ccccc1)N1CCN(c2ncnc3sc(-c4ccccc4)cc23)CC1,1.2

# An excerpt of these results, as labelled records.
> CCCN1C(=O)/C(=C/c2cc(C)n(C)c2C)SC1=Nc1ccc(OCC)cc1
- H5N1 antiviral = 0.8

> CC(C)Nc1nc(NC(C)C)nc(N(C)N)n1
- H5N1 antiviral = i

> Cc1ccc2c(c1)N(C(=O)CCC(=O)N1CCc3ccccc3C1)CCO2
- H5N1 antiviral = 0.3

> C=CCn1c(SCC(=O)Nc2ccc3c(c2)CCC3)nnc1-c1cccs1
- H5N1 antiviral = i

# New compounds follow
canonical_smiles,H5N1 antiviral
Cc1ccc(-n2ncc3c(=O)n(CC(=O)N4CCCCCC4)cnc32)cc1,0.1
Cn1c2ccccc2c2c(C(=O)N3CCN(c4ccc(F)cc4)CC3)cn(C3CCCC3)c(=O)c21,1.1
N=c1c(C(=O)NCc2ccccc2)cc2c(=O)n3ccccc3nc2n1Cc1ccco1,2.8
Cc1cc(NS(=O)(=O)c2ccc(Nc3nc(-c4sc(C)nc4C)cs3)cc2)no1,0.1
O=C(Nc1ccc2c(c1)OCO2)C1CC(c2ccccc2Cl)=NO1 (stereo unspecified),i
C=CCOC(=O)COc1ccc2c(C)c(C)c(=O)oc2c1,0.5
CC(Oc1ccccc1)C(=O)N1CCCc2ccccc21 (stereo unspecified),3.0
CCOC(=O)Cc1nnc(NC(=O)c2ncn[nH]2)s1,i
CCc1c(O)nc(SCC(N)=O)n(-c2ccccc2F)c1=O,0.3
Cc1c(C)[n+](=O)c2c(n1[O-])CCCCC2,i
COc1ccccc1-n1cnc2cc(NC(C)=O)ccc21,i
Cc1ccc(Cl)c(OCC(=O)Nc2ccc3c(c2)OCCO3)c1,i
CCc1ccc(C(=O)COC(=O)c2cccs2)cc1,i
Cc1ccc2cc3c(NC(=O)c4ccco4)nn(CC(C)C)c3nc2c1,i
Cc1nc2scc(-c3cccs3)c2c(=O)o1,0.1
O=C(CC(C(=O)O)C1CCCO1)NCCc1ccc2c(c1)OCO2 (stereo unspecified),0.0
CCCOC(=O)/C(C)=N\NC(=O)c1ccco1,0.5
CCOc1ccc(C(=O)NCC(=O)OC(C)C(=O)NCc2ccco2)cc1OCC (stereo unspecified),0.8
COc1ccc(C2=NCN(c3ccc(C)cc3)C(=S)N2)cc1,i
COc1ccc(NC2C=CS(=O)(=O)C2)cc1 (stereo unspecified),2.0
Cc1cc(NC(=O)CCC(=O)N(CCc2ccccc2)C(C(=O)NC2CCCC2)c2ccco2)no1 (stereo unspecified),i
Oc1[nH]c2ccccc2c1/C=N/N1CCCCC1,0.9
Clc1ccc(Nc2nc3ccccc3n3nnnc23)cc1,i
CC(C)C/C(=N/O)c1c[nH]c2ccccc12,i
Cc1cc(C)c(C#N)c(N2CCCC2)n1,i
N=c1sccn1CC(=O)Nc1cccc2ccccc12,i
CCn1c(SC(C)C(=O)NC2CCCc3ccccc32)nnc1-c1cccs1 (stereo unspecified),0.3
COc1ccccc1N1CCN(C(=O)CSc2nc(-c3ccco3)cc(C(F)(F)F)n2)CC1,2.6
COc1cc(C2=NOC(C(=O)N3CCCc4ccccc43)C2)cc(OC)c1OC (stereo unspecified),i
CCCCN(C)C(=O)c1c[nH]c2ccc(S(=O)(=O)N3CCOCC3)cc2c1=O,0.6
CC(C)(O)/C=C1/Oc2ccccc2C1N1CCCCC1 (stereo unspecified),i
CCOc1cc(S(=O)(=O)NC2CC2)c(OCC)cc1-n1cnnn1,2.2
C/C=C/CSc1nc2c(c(=O)[nH]c(=O)n2C)n1CCC,2.2
COc1ccc(C2=NOC(C(=O)N3CCN(c4ccccc4OC)CC3)C2)cc1 (stereo unspecified),i
Cc1ccc(S(=O)(=O)N2CCC(C(=O)OCC(=O)N3CC(=O)Nc4ccccc43)CC2)cc1,i
Cc1nc2nc(C)c(CCC(=O)N3CCN(c4ccccn4)CC3)c(C)n2n1,0.5
CCC(CC)C(=O)N1c2ccc(F)cc2CCC1C (stereo unspecified),1.1
COc1ccc(OCCCC(=O)NC(C)c2ccccc2)cc1 (stereo unspecified),0.5
COc1cc(OC)cc(C(=O)Nn2cc(C(=O)N3CCN(C)CC3)c3ccccc3c2=O)c1,0.5
Cc1c(Cl)cccc1N(CC(=O)O)S(C)(=O)=O,0.8
Cc1cc(C(=O)NCc2cccs2)n(-c2ccccc2)n1,2.5
CC(C)(C)c1nnc2sc(SCC(=O)c3cccs3)nn2c1=O,0.6
CCCC(=O)Nc1ccc2c(c1)C(=O)NC2=O,0.3
CCCc1cc(C(=O)NNC(=S)NCc2ccccc2)cs1,0.5
CCC(C)(C)NC(=O)CN(Cc1cccs1)C(=O)C(=O)Nc1ccc2c(c1)OCCO2,0.7
Cc1ccc(N2C(=O)CC(C3CCCO3)C2=O)cc1 (stereo unspecified),0.6
O=C1CC(c2ccc(S(=O)(=O)NCc3ccncc3)cc2)CN1 (stereo unspecified),0.7
O=C(NCC(c1cccnc1)N1CCN(c2ccccc2F)CC1)C1CCCCC1 (stereo unspecified),0.9
O=C(NCCS(=O)CCNC(=O)C(F)(F)F)C(F)(F)F,0.3
O=C(c1ccc(Cl)cc1)C12CN3CN(CN(C3)C1)C2,0.3
CCCC(=O)Nc1nnc(CC(=O)N2CCCC2)s1,0.5
Cc1cccc2c(=O)cc(C)n(CC(=O)N3CCCCC3)c12,i
Cc1ccc(S(=O)(=O)NC2=NCN(CCc3ccccc3)CN2)cc1,0.5
Cn1nnc2cc(C(=O)NCCC3=CCCCC3)ccc21,0.7
CCc1cccc2c(C#N)cn(CC(=O)NCCOC)c12,1.8
Cc1ccc(C(=O)Nc2nc(=O)n(C(=O)c3ccccc3Cl)s2)cc1,i
CC(C)CC(=O)N(c1ccc(F)cc1)C1C=CS(=O)(=O)C1 (stereo unspecified),1.1
CC(C)CC(=O)Nc1nnn(C)n1,i
COc1ccccc1N/C(N)=N/c1nc(CSc2ccc(C)cc2)cc(=O)[nH]1,i
CCOc1ccc(N=Nc2c(=O)[nH]n3c(=O)cc(C)[nH]c23)cc1,i

# Later entries:
canonical_smiles,H5N1 antiviral
CCCNC(=O)c1c[nH]c2ccc(S(=O)(=O)N(C)c3ccc(OCC)cc3)cc2c1=O,i
CCCN(CCC)CCCNC(=O)CC1Nc2ccccc2NC1=O (stereo unspecified),i
CC(/C=C/c1ccco1)=N\NC(=O)c1cccnc1,0.2
COc1ccc(C(NC(=O)CNC(C)=O)C(=O)Nc2ccc(C(C)C)cc2)cc1 (stereo unspecified),0.1
O=C(O)CSCC(=O)Nc1ccc(C(=O)O)cc1,i
C=CCc1cccc2cc(C(=O)NC)c(=O)oc12,1.1
CCC1CCCCN1C(=O)C1CC(c2cc(Cl)c(OC)cc2OC)=NO1 (stereo unspecified),i
O=S(=O)(c1ccccc1C(F)(F)F)N1CCOCC1,i
Cc1ccc(O)c(NC(=O)COc2cc(C)ccc2C)c1,1.4
CCOC(=O)c1cc2sc(C)cc2n1CC(=O)N1CCOCC1,0.3
CCOC(=O)/C=C/C(=O)OCC(=O)Nc1ccc(Cl)cn1,i
Nc1cccc2c1C(=O)N(C(=O)c1cccc(S(=O)(=O)N3CCCC3)c1)C2=O,0.2
CCc1ccc(NC(=O)c2cnc3scc(C)n3c2=O)cc1,i
CCCCN(C)CCCNC(=O)Cn1c(=O)sc2ccccc21,i
O=C(c1cccn2c(=O)c3ccc(Cl)cc3nc12)N1CCN(Cc2ccc3c(c2)OCO3)CC1,4.0

# Not a retest: an excerpt of the list.
canonical_smiles,H5N1 antiviral
Cc1cccc(OCC(=O)NNC(=O)Nc2cccc(Cl)c2)c1C,i
O=C(NC1CCCc2ccccc21)C1CCN(S(=O)(=O)c2cccc3nonc23)CC1 (stereo unspecified),i
CCOc1ccc(N(CC)S(=O)(=O)c2ccc3c(c2)oc(=O)n3C)cc1,0.5
CCC(NC(=O)c1cccc(Cn2nc(C)c([N+](=O)[O-])c2C)c1)c1ccc(C(C)C)cc1 (stereo unspecified),0.2
